ugtP null kill – growth inhibition of S. aureus ugtP deletion strain; growth inhibition, % (no concentration beside the values); 330,000 tested, 0.54% active; S. aureus RN4220 ugtP deletion, OD600 growth, 16 h; some inactives read as strong as hits;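 active = z-score under -3 and OD600 up to 0.15 on both plates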;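 note: plate controls were untreated wells for no effect and antibiotic for full effect; wells of about 80 µL received 100 nL stock; the first replicate is given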
Sa RN4220 lethal – kills Staphylococcus aureus RN4220 | S. aureus RN4220 growth, OD600, 16 h | inhibition, % (no concentration beside the values) | 330,000 tested, 0.33% active | AID 1259311;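 active = z-score of -3 or lower and OD600 up to 0.18 on both plates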;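 note: plate controls were untreated cells for no effect and reference antibiotic for full effect; stock transfer was 100 nL into about 80 µL; one replicate is shown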
BJeLR viability – BJeLR cell viability loss. BJeLR (HRASV12) viability, CellTiter-Glo ATP luminescence, 48 h; reference of the scale not given here. inhibition, % (test concentration not listed). 300,000 tested, 0.17% active;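 active = replicate mean above 50%; inconclusive = above 50% but judged a plate artefact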;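 note: 50 nL library stock added to about 25 µL; numbers are from one replicate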
Mtb hypoxia inh – inhibitors of hypoxia-regulated fluorescent reporter in Mycobacterium tuberculosis. M. tuberculosis hypoxia-regulated fluorescent reporter, fluorescence. fluorescence inhibition, % (no concentration beside the values). 300,000 tested, 0.1% active;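 active = 35 to 45% if threefold the growth effect, above 45% if 1.5-fold the growth effect; inactive = the rest, general growth blockers included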;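 note: wells of about 50 µL received 100 nL stock; 0% = vehicle wells and 100% = reference inhibitor wells; whole bacteria with a GFP reporter of the hypoxia response; strong numbers were not always called active; many hits fall short of the cut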
Autofluor counter – flagged as autofluorescent in microsphere protease counterscreen. compound autofluorescence counterscreen, microsphere flow cytometry; active compounds read high. fluorescence intensity (test concentration not listed). 360,000 tested, 3.1% active. AID 624483;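 active = at least 3 SD above the mean of all compounds, about 16000 in these data; inconclusive = too few beads counted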;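 note: 100 nL of 1 mM stock went into each well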
PrP 5UTR inh – inhibition of PrP 5' UTR reporter expression. inhibition, % (test concentration not listed). 340,000 tested, 0.35% active. cell-based PrP 5' UTR mRNA reporter, plate reader;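 active = every replicate at 50% or more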;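 note: 0 = median of the neutral control wells; tested in H4 reporter cells; numbers are from one replicate; inactives centre near -14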
Mtb hypoxia inh growth – further read-out of Mtb hypoxia inh, marked with its call; growth inhibition, %; measured here: M. tuberculosis growth (absorbance);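 0% = vehicle and 100% = reference antibiotic; read after six days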
* hit, by the source's call; ? = inconclusive; . = no result given; & = joins results of further samples.

Sample of the layout:
smiles,Autofluor counter,Sa RN4220 lethal,BJeLR viability,PrP 5UTR inh,Mtb hypoxia inh,ugtP null kill,Mtb hypoxia inh growth
CCC(C)(C)C1CCc2[nH]nc(C(=O)NN)c2C1 (configuration not stated),3884,-0.2,-9,-19,-2,-1,1
Cc1cc(C)c2c(-n3cccc3)nn(CC#N)c2n1,9804,4.3,5,-30,12,-9,3

Main list (from the top)
smiles,Autofluor counter,Sa RN4220 lethal,BJeLR viability,PrP 5UTR inh,Mtb hypoxia inh,ugtP null kill,Mtb hypoxia inh growth
CCC(C)(C)C1CCc2[nH]nc(C(=O)NN)c2C1 (configuration not stated),3884,-0.2,-9,-19,-2,-1,1
Cc1cc(C)c2c(-n3cccc3)nn(CC#N)c2n1,9804,4.3,5,-30,12,-9,3
CN(C(=O)CN1C(=O)/C(=C/c2ccc(F)cc2)SC1=S)C1CCS(=O)(=O)C1 (configuration not stated),4419,-0.2,2,7,7,-4,8
COc1ccc(COc2ccccc2C(N)=O)cc1F,2405,2.5,-8,-25,10,6,3
CCCCCOc1ccc(Br)cc1/C(C)=N/NC1=NCCN1,3600,.,81*,-40,.,.,.
O=C(Nc1ccc(N2CCOCC2)cc1)c1ccc(COc2ccccc2)cc1,2853,5.4,12,8,4,1,0
C#CCOCCOCCOCCNc1nc(N2CCN(C(=O)C(CCC(=O)O)n3cc(C(N)C(C)CC)nn3)CC2)nc(N2CCN(C(=O)C(Cc3cc4ccccc4[nH]3)n3cc(C(N)C(C)CC)nn3)CC2)n1 (configuration not stated),.,6.8,.,.,5,2,4
CC1(C)Cc2ccccc2C(N)=C1C#N,11272,4.2,7,-33,11,0,5
Cc1ccc(SCC(=O)NCCSCc2ccccc2)cc1,2358,4.8,3,-17,9,1,12
O=C(O)c1ccc(Br)c(S(=O)(=O)N2CCCC2)c1,15007,0.0,9,-7,6,3,3

10 structures already listed, arranged by length of the SMILES, low to high:
smiles,Autofluor counter,Sa RN4220 lethal,BJeLR viability,PrP 5UTR inh,Mtb hypoxia inh,ugtP null kill,Mtb hypoxia inh growth
CC1(C)Cc2ccccc2C(N)=C1C#N,11272,4.2,7,-33,11,0,5
COc1ccc(COc2ccccc2C(N)=O)cc1F,2405,2.5,-8,-25,10,6,3
Cc1ccc(SCC(=O)NCCSCc2ccccc2)cc1,2358,4.8,3,-17,9,1,12
Cc1cc(C)c2c(-n3cccc3)nn(CC#N)c2n1,9804,4.3,5,-30,12,-9,3
CCC(C)(C)C1CCc2[nH]nc(C(=O)NN)c2C1 (configuration not stated),3884,-0.2,-9,-19,-2,-1,1
CCCCCOc1ccc(Br)cc1/C(C)=N/NC1=NCCN1,3600,.,81*,-40,.,.,.
O=C(O)c1ccc(Br)c(S(=O)(=O)N2CCCC2)c1,15007,0.0,9,-7,6,3,3
O=C(Nc1ccc(N2CCOCC2)cc1)c1ccc(COc2ccccc2)cc1,2853,5.4,12,8,4,1,0
CN(C(=O)CN1C(=O)/C(=C/c2ccc(F)cc2)SC1=S)C1CCS(=O)(=O)C1 (configuration not stated),4419,-0.2,2,7,7,-4,8
C#CCOCCOCCOCCNc1nc(N2CCN(C(=O)C(CCC(=O)O)n3cc(C(N)C(C)CC)nn3)CC2)nc(N2CCN(C(=O)C(Cc3cc4ccccc4[nH]3)n3cc(C(N)C(C)CC)nn3)CC2)n1 (configuration not stated),.,6.8,.,.,5,2,4

Going on with the list.
smiles,Autofluor counter,Sa RN4220 lethal,BJeLR viability,PrP 5UTR inh,Mtb hypoxia inh,ugtP null kill,Mtb hypoxia inh growth
CCOc1cc(C2C(C(=O)N3CCCCC3)=C(C)NC3=C2C(=O)CC(C)(C)C3)ccc1O (configuration not stated),23188*,4.3,0,-10,5,6,9
COc1cccc(CN2CCN(C(=O)CC(C)C)CC2)c1,2933,8.4,8,-22,14,3,7
Cc1ccc(S(=O)(=O)N2CCCC2CNC(=O)c2ccccc2)cc1 (configuration not stated),6568,0.3,-13,3,-4,-1,11
CN(C1(C)CCS(=O)(=O)C1)S(=O)(=O)c1ccc(F)cc1 (configuration not stated),4738,2.4,6,-6,11,11,-3
CCc1ccc(NC(=O)CC2C(=O)N(c3ccc(OC)cc3)C(=O)N2CCOC)cc1 (configuration not stated),3661,2.3,-2,-8,15,13,10
COc1cccc(N(CC(=O)NC2CCCC2)C(=O)Cn2nnc(-c3ccc(C)o3)n2)c1,5039,-1.2,-13,12,-16,-3,-2
COc1ccc(OCCCN2CCCC(C)C2)cc1 (configuration not stated),4388,5.7,6,-20,-3,4,3
COc1cc(CN2CCN(c3cccc(C)c3C)CC2)cc(OC)c1O,5558,-0.4,-8,-28,-14,-1,-15
COc1ccc(C2=CC3=C(Br)C(=O)C(C)(OC(=O)c4ccco4)C(=O)C3=CO2)cc1 (configuration not stated),3689,.,3,-14,.,.,.
CCN1CCN(CCNC(=O)c2ccc3c(c2)NC(=O)/C(=C\c2ccc(OC)c(OC)c2)S3)CC1,6095,-0.1,5,5,8,-7,8

(continued)
smiles,Autofluor counter,Sa RN4220 lethal,BJeLR viability,PrP 5UTR inh,Mtb hypoxia inh,ugtP null kill,Mtb hypoxia inh growth
O=c1c2ccccc2oc2ccc(Oc3ccccc3)cc12,4117,15,-2,-92,5,34,9
Cc1csc(=O)n1CC(=O)OCC(=O)N(CC(C)C)c1c(N)n(Cc2ccccc2)c(=O)[nH]c1=O,5139,2.9,2,-15,6,6,7
C=C1[C@@H](OC(C)=O)[C@]23C[C@@H]1[C@@H](OC(C)=O)CC2[C@]12C4C[C@H]3[C@H]1N(CC)C[C@]4(C)CC[C@@H]2O (some centres not stated),6503,11,-8,-33,.,-7,.
Cc1cc(N2CCOCC2)ccc1C=C1NC(=O)N(Cc2ccccc2)C1=O,.,1.2,.,.,-6,-6,-10
CC1=NN(c2ccccc2)C(=O)C1/C=C1/C(=O)NC(=O)N(c2cc(C)cc(C)c2)C1=O (configuration not stated),2329,.,5,-14,.,.,.
CSc1nnc2c(n1)OC(c1ccccn1)N(C(C)=O)c1ccccc1-2 (configuration not stated),2510,0.6,5,-7,10,7,0
C=CCN(CC=C)S(=O)(=O)c1ccc(NC(=S)NC(=O)C2CC2)cc1,.,-2.6,5,-10,4,23,-2
Cc1n[nH]c(=S)c2nn(-c3ccccc3F)c(C)c12,2866,24,2,3,-1,14,-6
CCOP(=O)(C#CC(C)(C)C)C(O)(c1ccccc1)C(F)(F)F (configuration not stated),2227,3.6,-4,-10,.,-7,.
COc1ccccc1N1CCN(CC(=O)Nc2ccc(-n3cnnn3)cc2)CC1,4934,5.2,0,-25,4,4,8

Later entries
smiles,Autofluor counter,Sa RN4220 lethal,BJeLR viability,PrP 5UTR inh,Mtb hypoxia inh,ugtP null kill,Mtb hypoxia inh growth
Cc1ccc(SCC(=O)Nc2nnc(-c3ccco3)o2)cc1,5757,0.4,0,-9,-1,-5,10
CCCNC(=O)c1onc(CSc2ccc(Cl)cc2)c1C(=O)NCC1CC1,2843,4.4,1,-4,11,-13,7
CCN1CCN(Cc2ccc(NC(=O)c3ccc(C)c(NC(=O)c4ccc5n[nH]nc5c4)c3)cc2C(F)(F)F)CC1,3143,5.1,-8,13,15,2,14
CC(=O)Nc1ccc(N2C(=O)c3cccc4c(O)ccc(c34)C2=O)cc1,4696,5.2,-1,-33,-6,2,2
CCOc1ccc(S(=O)(=O)n2cc(F)c(=O)[nH]c2=O)cc1,5210,18,0,-18,8,29,8
COc1ccccc1CNC(=O)CN1C(=O)c2ccc([N+](=O)[O-])cc2C1=O,5295,2.9,5,-12,2,-1,2
CCOc1c2ccc(C(=O)NC3CCCc4ccccc43)cc2nn1CC (configuration not stated),3669,12,6,-6,9,0,8
CCOc1cc(C(=O)NC(C)c2ccncc2)cc(OCC)c1OCC (configuration not stated),11422,1.7,-16,.,9,8,5
COC(=O)c1sccc1NC(=O)c1ccc(OC)cc1,9133,11,-7,-19,9,-3,12
CCOc1cc(C(=O)OCc2cccc(OC)c2OC)ccc1OCC(=O)N1CCOCC1,6059,8.5,-8,-23,2,13,-4

Next section:
smiles,Autofluor counter,Sa RN4220 lethal,BJeLR viability,PrP 5UTR inh,Mtb hypoxia inh,ugtP null kill,Mtb hypoxia inh growth
O=[N+]([O-])c1ccc(N2CCc3ccccc3C2)cc1,3862,8.7,-14,-20,2,-3,4
COc1cc(/C=N\NC(=O)c2ccccc2F)ccc1Oc1ccc([N+](=O)[O-])cn1,6037,.,2,-17,.,.,.
CCn1c(CCNS(=O)(=O)c2ccccc2Br)nnc1SC,3867,5.3,-3,-32,-7,13,0
CCOCCCNC(=O)Cn1cc2c(n1)CCCCC2,6093,5.8,-10,-18,.,9,.
Cc1cc(NC(=O)C(C)SCC(=O)OCc2ccc([N+](=O)[O-])cc2)no1 (configuration not stated),?,0.4,-1,-18,4,0,4
Cc1ccc(S(=O)(=O)N(C)C)cc1NC(=O)COc1cccc(-n2cnnn2)c1,.,0.4,.,2,9,7,2
O=C(NNC(=S)Nc1cccc(C(F)(F)F)c1)c1ccc(Cl)cc1Cl,2209,47,-10,-19,12,25,4
CCn1c(SCC(N)=O)nc2ccccc2c1=O,12708,4.7,-8,-10,18,4,12
Nc1nc(NCC2CCCO2)nc(Nc2cccc(Cl)c2)c1[N+](=O)[O-] (configuration not stated),4182,2.1,9,2,4,-6,8
CCNS(=O)(=O)c1ccc(NC(=O)c2c(-c3ccccc3)noc2C)cc1,3775,6.1,-1,-12,-1,1,-4

Next part
smiles,Autofluor counter,Sa RN4220 lethal,BJeLR viability,PrP 5UTR inh,Mtb hypoxia inh,ugtP null kill,Mtb hypoxia inh growth
CCN1CCN(CC(=O)Nc2cccc(C)c2)C(=O)C1=O,5202,0.3,-12,0,5,4,6
Nn1c(=O)c2ccccc2n2c(SCc3ccc(C(F)(F)F)cc3)nnc12,4437,1.0,-4,-21,7,-7,3
COc1ccc(OC)c(S(=O)(=O)Nc2ccc(C)c(C)c2)c1,10464,6.5,6,0,6,-9,1
CC(=O)Nc1ccc(N2C(=O)c3ccc(S(=O)(=O)c4ccc(C(=O)O)cc4)cc3C2=O)cc1,5692,-2.0,-1,-20,0,-4,13
COc1ccc(-c2nc(CN3CCC(C(=O)N4CCOCC4)CC3)c(C)o2)c(OC)c1,.,2.7,1,-19,-3,6,-5
CC1=NOC(=O)/C1=C\c1ccc(-c2cccc(Cl)c2)o1,3006,-0.1,10,-31,1,1,7
CCCNC(=O)c1ccc(N2CCC3(CC2)CC(c2cccc(Br)c2)=NO3)c(NC(=O)c2cccc(OC)c2)c1,3969,6.0,12,-11,0,8,3
CC1CCCCC1NC(=S)NC(=O)c1ccccc1Cl (configuration not stated),2946,2.2,.,2,-5,25,-2
CC1CCN(c2ccccc2NC(=O)c2ccc(N3CCOCC3)c([N+](=O)[O-])c2)CC1,11372,2.6,-1,-21,-1,2,-6
CCN(CC)c1ccc(/C=N/N2CCN(Cc3ccccc3)CC2)cc1,7383,.,8,-23,.,.,.

Next section:
smiles,Autofluor counter,Sa RN4220 lethal,BJeLR viability,PrP 5UTR inh,Mtb hypoxia inh,ugtP null kill,Mtb hypoxia inh growth
O=C(COc1ccccc1)N1CCN(C(=O)c2cccs2)CC1,3425,-0.4,2,-20,.,0,.
O=C(CCC1CCCCC1)NCCN1C2=NCC(Cc3ccccc3)N2CC1Cc1ccc(O)cc1 (configuration not stated),.,-7.4&-7.6,.,.,-5&14,-1&-34,11&15
COc1ccccc1NS(=O)(=O)c1cccc(C(=O)NCC(c2ccco2)N2CCCCC2)c1 (configuration not stated),4475,4.2,-4,-8,10,10,-4
CCn1c(COC(=O)CNC(=O)c2ccccc2F)nc2cc(S(=O)(=O)N(C)C)ccc21,.,2.0,1,-23,6,13,0
CCOc1ccccc1C(=O)Nc1cccc(-c2ccc(N3CCOCC3)nn2)c1,?,4.4,-11,-50,8,-12,5
O=C(NCc1ccco1)c1cccc2c1C(=O)c1ccc(N3CCCC3)cc1S2(=O)=O,3355,5.8,.,-9,15,1,4
CC(C(N)=O)N1c2cccc3cccc(c23)S1(=O)=O (configuration not stated),4510,5.1,-5,-17,5,-1,5
Cc1cccc(OCc2nnc(SCC(=O)N3c4ccccc4CCc4ccccc43)o2)c1,4593,-0.3,1,-21,19,15,4
CCCN1CCc2c(sc(NC(=S)NC(=O)c3ccccc3)c2C#N)C1,2843,1.8,3,-26,0,3,3
CC(C)N(Cc1ccccc1)C(=O)COC(=O)c1cnccn1,4808,0.0,-6,-15,13,5,-1
COc1ccc(S(=O)(=O)NCCSCc2ccco2)cc1Cl,3670,5.6,3,-13,.,3,.
O=C(CN1C(=O)COc2ccccc21)NCCCN1CCN(c2ccccc2F)CC1,4068,-5.0,10,-13,2,-6,1

Rows are unselected; 4% or so of the library scored in one or more.
